Screening data as filed in PubChem BioAssay.
Mtb growth = Mycobacterium tuberculosis H37Rv growth inhibition, cell based, confirmatory dose response (AID 1949); most inactive calls were filed without a number and no value below 0 was filed; one-dose inhibition, % at 10 µg/mL; IC50 in µg/mL for titrated hits; actives 1.6% (n = 100,000);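 active = confirmed in a dose series; inconclusive = about 50% or more but not retested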;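 also: bacteria grown 7 days with compound before Alamar blue readout; 0% = untreated bacteria and 100% = reference antibiotic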
Active calls of the source: *; i = inactive; ? = inconclusive. Only part of the results is shown; the hit share may differ from the screen's.

SMILES	Mtb growth
COc1ccc2c(c1)c1n[nH]c(=S)nc1n2C	i
COc1cccc(CN2CCN(C(=S)Nc3ccc(F)cc3F)CC2)c1	i
CC(c1ccccc1)C1CC(=O)N(Cc2ccccc2)C1=O (stereo not given)	i
CCc1cc(Br)cc2c(C(=O)N3CCOCC3)cc(-c3ccc(OC)cc3)nc12	i
COc1ccc(C(=O)Nc2ccc(C(F)(F)F)cc2)cc1	i
N/C(=N\OC(=O)c1ccc(Br)o1)c1ccncc1	i
CC1(C)C2CCC1(CS(=O)(=O)N1CCCC1)C(=O)C2 (stereo not given)	i
COC(=O)C1=C(C)N(C)C(C)=C(C(=O)OC)C1c1ccc(Cl)c(Cl)c1	2%
COc1ccc(S(=O)(=O)N(CC(=O)NCc2ccccc2)c2ccc(F)cc2)cc1OC	4%
COc1ccc(CCNC(=O)CN2C(=O)c3ccccc3S2(=O)=O)cc1OC	i
CCOC(=O)C1=C(C)NC(=O)NC1c1cc([N+](=O)[O-])ccc1OCC (stereo not given)	1%
CCOC(=O)c1cc(CC)sc1NC(=O)c1cccc(OCC)c1	1%
COC(=O)C(C(=O)N1CCCc2ccccc21)C1CCCC1 (stereo not given)	i
Clc1cccc(Cl)c1-c1nnc2ccc(N3CCOCC3)nn12	i
CN(CC(=O)Nc1ccc2c(c1)OCCO2)S(=O)(=O)c1ccc(Br)cc1	i
Cc1ccc(-c2cc(C(F)F)n3ncc(C(=O)N4CCc5ccccc5C4)c3n2)cc1	38µg/mL*
Cc1cc(C)n2nc(NCc3ccccc3)nc2n1	i
Cc1cc2c(cc1C)C(c1ccccc1[N+](=O)[O-])CC(=O)N2 (stereo not given)	2%
Cn1c(SCc2nc3ccccc3[nH]2)nnc1-c1cnccn1	9%
CCOc1ccc(C2c3c(oc4ccc(C)cc4c3=O)C(=O)N2CCN2CCOCC2)cc1 (stereo not given)	i
S=c1[nH]c2ccccc2n1CCc1ccccc1	i
CCc1c(C)sc(NC(=S)NC(=O)c2ccccc2)c1C(=O)OC	i
O=C(Nc1cccc(N2CCOCC2)c1)c1ccco1	i
COc1cc(C(=O)Nc2ccc(C(=O)OC3CCCCC3)cc2)cc(OC)c1OC	i
COc1ccc(C(CC(=O)NCc2ccco2)Sc2n[nH]c(-c3ccc(Cl)cc3)n2)cc1 (stereo not given)	i

Some of the entries so far, in CSV form.
Molecule,Mtb growth
CC(c1ccccc1)C1CC(=O)N(Cc2ccccc2)C1=O (stereo not given),i
CCc1cc(Br)cc2c(C(=O)N3CCOCC3)cc(-c3ccc(OC)cc3)nc12,i
COc1ccc(C(=O)Nc2ccc(C(F)(F)F)cc2)cc1,i
N/C(=N\OC(=O)c1ccc(Br)o1)c1ccncc1,i

Additional records follow.
SMILES	Mtb growth
O=C1CCC(=O)N1OCCCOc1ccccc1-c1ccccc1	i
Cc1sc(NC(=O)c2ccccc2)c(C(N)=O)c1-c1ccccc1	i
CCOc1ccc(NC(=O)N2CCN(CC)CC2)cc1	i
Cc1ccc(C2C(C#N)=C(N)N(c3cccnc3)C3=C2C(=O)CCC3)c(C)c1 (stereo not given)	i
COc1ccc(S(=O)(=O)N(CC(=O)Nc2cccc(Cl)c2Cl)Cc2ccccc2)cc1	2%
N#Cc1c(NC(=O)CSc2n[nH]c(-c3ccc(Cl)cc3)n2)sc2c1CCCC2	i
COC(=O)c1ccc(NC(=S)NC2CC2)cc1	i
CCOc1ccc(C2CC(=O)n3nc(C45CC6CC(CC(C6)C4)C5)nc3S2)cc1 (stereo not given)	i
CCOC(=O)CSc1nc2c(c(=O)n(C)c(=O)n2C)n1Cc1ccccc1F	i
Cc1nc(SCC(=O)c2ccc(Cl)cc2)c2c3c(sc2n1)CCCC3	i
C=CCSc1nnc2n(Cc3ccccc3)c(=O)c3c(n12)-c1ccccc1CC31CCCCC1	12%
CC(C)Oc1ccc(CSc2nc(N)c3c4c(sc3n2)CSC(C)(C)C4)cc1	i
Cc1oc(CC(C)C)c(CSCC(=O)O)c1C(=O)O	i
CCOC(=O)Nc1ccc(NC(=O)COc2ccc3ccccc3c2)cc1	4%
COc1ccc(C2N(c3ccc(OC)cc3)C(=O)C23CCCC3)cc1 (stereo not given)	0%
COc1ccc(-c2nnc(NC(=O)c3csc(C)c3)s2)cc1	i
COC(=O)c1ccc(NC(=O)C2CCN(C(=O)c3ccc(Cl)cc3)CC2)cc1	i
Cc1ccc(CSc2n[nH]c(N)n2)cc1	2%
COc1ccc(NC(=S)Nc2cc(OC)ccc2OC)c(C)c1	3%
COC(=O)c1ccccc1NC(=O)C(C)Oc1cc(C)c(Cl)c(C)c1 (stereo not given)	2%
Cc1ccc2c(c1)c1cccc3c1n2CCN3CCC#N	10%
CCCCC(=O)Nc1ccccc1-c1nc2ccccc2s1	37%
O=C(COc1cc2oc(=O)c3c(c2cc1Cl)CCC3)c1cccc([N+](=O)[O-])c1	i
CCOC(=O)N1CCN(Cc2nc(-c3ccc(OC)cc3)no2)CC1	i
CCC(Sc1nc2ccccc2s1)C(=O)Nc1ccc(Cl)cc1 (stereo not given)	2%

The list goes on.
SMILES	Mtb growth
O=[N+]([O-])c1nn(Cc2ccc(F)cc2)cc1Br	i
CCCCN1C(=O)NC(=O)/C(=C\c2ccc(O)cc2)C1=O	i
CCOC(=O)c1sc(NC(=O)C2c3ccccc3Oc3ccccc32)nc1C	21%
Cc1ccnc(NS(=O)(=O)c2ccc(NC(=O)CSc3nnc(-c4cccnc4)n3C3CCCCC3)cc2)n1	2%
COc1ccc(CC(=O)NC(=S)Nc2ccc(S(=O)(=O)N(C)C3CCCCC3)cc2)cc1	i
C=CCc1ccc(OCCn2cccc2C=O)c(OC)c1	i
CCC(=O)N1CCN(c2ccc(NC(=S)NC(=O)c3cc(I)ccc3Cl)cc2)CC1	6%
S=c1[nH]nc(Cc2c[nH]c3ccccc23)o1	1%
CC(C)(C)c1ccc(NC(=O)CSc2nnc3ccccn23)cc1	i
COc1ccccc1C(=O)Oc1ccc(C(C)(C)C)cc1	?
O=C(O)CCCc1nc(-c2ccccc2Cl)no1	i
O=C(NCc1ccco1)c1cc2c(s1)CCCC2	i
CC(C)OC(=O)Cn1cc(C=O)c2ccccc21	i
COc1ccc(NC(=S)N2CCN(C)CC2)cc1	i
Cc1ccccc1C(=O)NC(=S)Nc1ccccc1N1CCCC1	i
CCCNC(=O)CSc1c(-c2ccccc2)c2cc(Cl)ccc2[nH]c1=O	i
Cc1ccc(-n2ncc(C#N)c2/N=C/N2CCN(C)CC2)cc1	i
O=C(CSc1nnc2ccc3ccccc3n12)N1CCCCCC1	i
O=C(O)CCc1ccc(-c2ccccc2)n1-c1cc(Cl)ccc1O	i
CC(C)c1ccc(C(=O)N2CCN(c3ccc(F)cc3)CC2)cc1	i
CN(C)c1c([N+](=O)[O-])c(C(Cl)Cl)nn1-c1ccccc1	?
CC(=O)CC(=O)Nc1cc(Cl)cc(Cl)c1	37%
COc1cc(C(=S)N2CCOCC2)cc(OC)c1O	1%
CN(Cc1ccccc1)C1CCN(C2CCC(c3ccccc3)CC2)CC1 (stereo not given)	i
CCOCCCNCc1ccc(N(C)C)cc1	i

Following part:
SMILES	Mtb growth
CCC(C)(C)C(=O)Nc1cccc(C)c1	2%
CCC(=O)Nc1nc(-c2cc(C)ccc2C)cs1	10%
COc1ccccc1C1CC(=O)NC(SCC(=O)Nc2ccccc2C(F)(F)F)=C1C#N (stereo not given)	i
CC1=Nc2ccccc2N=C(NC(=O)CN2CCN(c3ccccc3)CC2)C1c1ccccc1 (stereo not given)	4%
COc1ccc(-n2c(SCC#N)nnc2-c2cccs2)cc1	i
O=C(COc1cc(Cl)c(Cl)cc1Cl)NCc1ccco1	i
CS(=O)(=O)N(CC(=O)NCCSc1ccc(Cl)cc1)c1ccc(F)cc1	i
Clc1ccc(OCCn2nc3ccccc3n2)cc1	4%
Cc1cc(OCC(=O)NNC(=O)C2COc3ccccc3O2)ccc1Cl (stereo not given)	i
COc1cc(OC)c(OC)cc1CN1CCN(C(=O)c2ccncc2)CC1	i
CCC(C(=O)N(C)c1nnc(-c2ccccc2)s1)c1ccccc1 (stereo not given)	5%
CC(C)NC(=O)c1ccccc1NC(=O)CN(c1ccc(Cl)c(C(F)(F)F)c1)S(C)(=O)=O	i
O=C(NC(=S)Nc1cccc(-c2nc3ncccc3o2)c1)c1ccc(-c2ccccc2[N+](=O)[O-])o1	i
CCOc1nc(C)ccc1-c1noc(-c2ccc([N+](=O)[O-])cc2)n1	i
COC(=O)c1cn(C(=O)C(C)Oc2ccc(OC)cc2)c2ccccc12 (stereo not given)	1%
CCc1cccc(CC)c1NC(=O)c1ccc(N(Cc2ccc(Cl)cc2)S(C)(=O)=O)cc1	i
CCCCc1ccc(NC(=O)CSCc2ccccc2C)cc1	20%
Cc1c(Cl)cccc1NC(=S)N1CCC(C(N)=O)(N2CCCCC2)CC1	i
O=C(Nc1cccc([N+](=O)[O-])c1)C1CCN(C(=O)c2ccc(F)cc2)CC1	i
CCCNC(=O)c1ccc(N(Cc2ccccc2)S(C)(=O)=O)cc1	i
COc1ccc(/C=C(/C#N)c2cccc(F)c2)cc1OC	3%
Cc1cccc(CSc2nncc(=O)[nH]2)c1	i
O=C(O)CSC1CC(=O)N(c2cccc(Cl)c2)C1=O (stereo not given)	i
COC(=O)Cc1c(C)c2ccc(OCc3ccc(F)cc3)cc2oc1=O	i
CCOc1cc(S(=O)(=O)N2CCC(C(N)=O)CC2)ccc1F	i

Structures above with a nitro group on carbon, in the order listed:
SMILES	Mtb growth
CCOC(=O)C1=C(C)NC(=O)NC1c1cc([N+](=O)[O-])ccc1OCC (stereo not given)	1%
Cc1cc2c(cc1C)C(c1ccccc1[N+](=O)[O-])CC(=O)N2 (stereo not given)	2%
O=C(COc1cc2oc(=O)c3c(c2cc1Cl)CCC3)c1cccc([N+](=O)[O-])c1	i
O=[N+]([O-])c1nn(Cc2ccc(F)cc2)cc1Br	i
CN(C)c1c([N+](=O)[O-])c(C(Cl)Cl)nn1-c1ccccc1	?
O=C(NC(=S)Nc1cccc(-c2nc3ncccc3o2)c1)c1ccc(-c2ccccc2[N+](=O)[O-])o1	i
CCOc1nc(C)ccc1-c1noc(-c2ccc([N+](=O)[O-])cc2)n1	i
O=C(Nc1cccc([N+](=O)[O-])c1)C1CCN(C(=O)c2ccc(F)cc2)CC1	i

The results go on:
SMILES	Mtb growth
CCOC(=O)c1c(NC(=S)Nc2ccc(OCC)cc2[N+](=O)[O-])sc(C)c1-c1ccccc1	i
CCn1c(=O)n(CC)c2cc(NC(=O)CCc3ccccc3)c(Br)cc21	i
O=C(NN1CCOCC1)NC12CC3CC(CC(C3)C1)C2	i
CCN(CC)c1cc(Cl)c(C(=O)c2ccccc2)cc1F	i
Cc1ccc(N2CC(C(=O)Nc3nccs3)CC2=O)cc1Cl (stereo not given)	i
Cc1cc(OCC(=O)NCc2ccncc2)cc(C)c1Br	i
CCn1c(CNC(=O)c2ccc(OC)cc2)nnc1SCC(=O)Nc1ccccc1C	i
CCOC(=O)c1ccc(N2C(=O)CC(SCC(=O)Nc3ccccc3)C2=O)cc1 (stereo not given)	i
O=Cc1cn(CC(=O)Nc2ccccc2C(F)(F)F)c2ccc(Br)cc12	i
CN(C)S(=O)(=O)Nc1ccc(F)c(Cl)c1	i
Cc1cc(Br)c2c(c1)C(O)(N1CCCCC1C)C(=O)N2 (stereo not given)	2%
CCOC(=O)C1CCCN(CC(=O)NC2=Nc3ccccc3N=C(C)C2c2ccccc2)C1 (stereo not given)	0%
O=C(O)c1ccc(S(=O)(=O)NCc2ccco2)cc1	i
COc1ccc(N(C(C)C(=O)Nc2ccc(Cl)cc2C)S(C)(=O)=O)cc1 (stereo not given)	i
Cc1cc(OCC(=O)Nc2ccc(CN3CCCCC3)cc2)ccc1Cl	i
CCOC(=O)c1ccc(NC(=O)C(CC(=O)O)NCc2ccco2)cc1 (stereo not given)	i
CCOc1ccc(S(=O)(=O)Nc2ccc(Oc3ccccc3)cc2)cc1	i
COC(=O)COc1ccc(/C=C(/C#N)c2nc3ccccc3[nH]2)cc1	0.67µg/mL*
CC(C)(C)C(=O)NC(=S)N1CCNC(=O)C1CC(=O)OCc1ccccc1 (stereo not given)	i
O=C(CN1C(=O)C2CC=CCC2C1=O)NC1CCCCC1 (stereo not given)	i
c1cncc(CNc2c3c(nc4ccccc24)CCC3)c1	i
C=CCN(CC=C)C(=S)Nc1ccc2c(C)cc(=O)oc2c1	1%
CC(C)OCCCNc1ncnc(N)c1[N+](=O)[O-]	i
CC(=O)Nc1ccc(C(=O)Nc2ccc(S(=O)(=O)N3CCC(C)CC3)cc2)cc1	i
CCOC(=O)CNC(=S)N1CCN(c2ncc3c(=O)c(C(=O)O)cn(CC)c3n2)CC1	i

Carrying on:
SMILES	Mtb growth
COc1ccc(NC(=S)N2CCN(c3ccc(F)cc3)CC2)c(OC)c1	i
Cc1cc(=O)[nH]c(/N=C(\N)Nc2ccc(Oc3ccccc3)cc2)n1	2%
O=C(NC1CCC(CC2CCC(NC(=O)C(F)(F)F)CC2)CC1)C(F)(F)F (stereo not given)	4%
O=C(CCn1[nH]c(=O)c2ccccc2c1=O)NCCO	i
O=C(COc1ccc(-c2ccccc2)cc1)Nc1nnc(C2CCCCC2)s1	i
Cc1ccc(N(CC(=O)Nc2cccc(Cl)c2Cl)S(=O)(=O)c2ccc(C)cc2)cc1	4%
O=C(CC1(O)C(=O)N(Cc2ccccc2)c2ccccc21)c1cc2ccccc2oc1=O (stereo not given)	0%
O=C(O)CC(NCc1ccco1)C(=O)Nc1ccc([N+](=O)[O-])cc1 (stereo not given)	i
Cc1cccc(C(C)C)c1NC(=O)CN(CCc1ccccc1)S(C)(=O)=O	1%
